VACV mCherry inh – qHTS for Stage-Specific Inhibitors of Vaccinia Orthopoxvirus: mCherry Reporter Primary qHTS. Potency, µM (doses to about 36.5 µM), for inactives: at the highest dose activity change, negative = inhibition, most hits filed as inhibitors. AID 720579, 2013. 310,000 tested, 0.63% active. Vaccinia virus mCherry reporter infection, fluorescence; about a quarter of the inactives have no number; active = well fitted inhibition curve with a large enough effect; inconclusive = small, poorly fitted or top-dose-only effect; inactive = no such curve, though single readings can be large or run the other way; tested in A549 cells; also: nearly all actives have a fitted effect of over 35% in size; inactives centre near -10
VACV Venus inh – qHTS for Stage-Specific Inhibitors of Vaccinia Orthopoxvirus: Venus Reporter Primary qHTS | Vaccinia virus Venus reporter expression, fluorescence | Potency, µM (top dose mostly 36.5 µM), for inactives: at the top dose activity change, negative = inhibition, actives largely listed as inhibitors | 330,000 tested, 0.46% active; active means well fitted inhibition curve with a large enough effect; inconclusive means small, poorly fitted or top-dose-only effect; inactive means no such curve, though single readings can be large or run the other way; tested in A549 cells; also: nearly all actives have a fitted effect of over 30% in size; inactives centre near -10
Active calls of the source: *; i = inactive; u = inconclusive; x = no result given; & = joins results of further samples; [ ] = remark or other dose. % is scaled to controls: 0 for no effect and ±100 for the full control effect; potency is read from the fitted curve at half-maximal effect.

SMILES	VACV mCherry inh	VACV Venus inh
COc1ccc(N2CCN(C(CNC(=O)C(=O)NCc3cccs3)c3ccco3)CC2)cc1 (stereo not given)	-12.5%	-1.1%
O=C(Nc1ccc(Cl)cc1)Nc1cccc2nsnc12	-14.4%	u
CCC(C(=O)NCc1cccnc1)n1nc(C)n2c(cc3occc32)c1=O (stereo not given)	i	-5.5%
Cc1ccccc1SCc1noc(C(=O)NCC2CCCO2)c1C(=O)O (stereo not given)	i	-1.5%
Cc1ccc(N2C(=O)CCSC23C(=O)N(Cc2ccccc2)c2ccccc23)cc1F (stereo not given)	-15.8%	u
Cc1ccc(N2CCN(C(C(=O)Nc3c(C)cccc3C)c3ccccc3OC(F)(F)F)CC2)cc1 (stereo not given)	u	-19.5%
COc1ccc(N(CC(=O)Nc2c(C)cccc2C)S(=O)(=O)c2ccccc2[N+](=O)[O-])c(OC)c1	i	-4.3%
COc1ccc(-n2nc(C(=O)NCC(=O)N3CCN(c4ccccc4F)CC3)c3ccccc3c2=O)cc1OC	3.2%	-5.8%
CCn1cc(C(=O)N[C@@H](CCSC)C(=O)NCCCn2ccnc2)c(=O)c2cc3c(cc21)OCO3	-0.2%	-9.2%
Cc1ccccc1NC(=O)Cc1nc(COC(=O)CC(C)c2ccccc2)cs1 (stereo not given)	-14.1%	-15.3%
CC(=O)Nc1cccc(NS(=O)(=O)c2ccc3c(c2)CCC(=O)N3)c1	i	-15.3%
O=C(Cn1c(=O)oc2ccccc21)Nc1ccc(F)cc1	-25.4%	-0.9%
Cc1n[nH]c(=O)nc1N1CCc2ccccc2C1	x	-14.0%
N#Cc1ccc(C(=O)N/N=C/c2cn(CC(=O)O)c3ccccc23)c(F)c1	-11.7%	-8.6%
COc1ccccc1S(=O)Cc1ccc(C(=O)NCc2ccccc2Cl)o1 (stereo not given)	5.1%	-12.7%
O=C(/C=C/c1ccc2c(c1)OCO2)c1ccccn1	-25.2%	0.0%
O=C(CSC1=NCCS1)NC(NC(=O)CSC1=NCCS1)c1ccccc1	-14.7%	-20.3%
c1cc2nnnn2nc1N1CCCCCC1	1.1%	5.8%
COc1cc(OC)cc(C(=O)NC2CCCCCCC2)c1	-17.4%	-7.3%
COc1ccc(CCNC(=O)CSc2nc3c(c(=O)n(C)c(=O)n3C)n2C(C)C)cc1OC	i	-11.4%
Cc1ccc(-c2nc(-c3ccccn3)no2)cc1Cl	-13.3%	-14.0%
CCn1c(=O)c(C(=O)Nc2nc3ccccc3[nH]2)c(O)c2ccccc21	-20.7%	u
O=C(c1cccs1)N(Cc1cc2ccccc2[nH]c1=O)c1ccccc1	-20.0%	-27.9%
CCOCCCNC(=O)C1CCN(Cc2cccc(OCc3ccccc3)c2)CC1	-22.2%	-18.5%
CCOc1ccc(NC(=S)NNC(=O)c2ccc(Br)cc2)cc1	-17.2%	-11.0%

Continued.
SMILES	VACV mCherry inh	VACV Venus inh
CC(Cc1ccco1)NC(=O)c1cccc(S(=O)(=O)N(C)C)c1 (stereo not given)	i	-6.1%
Cc1ccc(S(=O)(=O)C[C@@H]2OC[C@H](C(C)C)N2S(=O)(=O)c2ccc(C)cc2)cc1	-23.2%	-25.8%
COc1ccc(C(=S)NC2CCCCC2)cc1	x	-9.1%
CC1CCCCN1S(=O)(=O)c1ccc2c(c1)oc(=O)n2CC(=O)O (stereo not given)	x	-14.4%
CC(C)CSc1nsc(N)n1	u	-8.7%
C/C(CC(=O)Nc1ccccn1)=N\NC(=O)C(=O)Nc1cccc(Cl)c1C	x	-21.2%
COc1ccc(CN(C)CC(=O)NC2CCCc3ccccc32)cc1OC (stereo not given)	-1.6%	-9.2%
Cc1cc(NC(=O)CCS(=O)(=O)c2cc(Br)cc3c2N(C(=O)C2CC2)CC3)ccc1Br	-9.8%	3.0%
COC(=O)C1CCCCN1Cc1ccc2c(c1)CN(C(=O)c1ccc(F)cc1)CCO2 (stereo not given)	-6.2%	-1.2%
CCCCC/C(=N/O)c1c(C)[nH]c2ccccc12	-25.7%	-14.7%
Cc1occc1-c1nnc(SCC(=O)Nc2ccccc2)n1C	-14.2%	-17.9%
COC(=O)c1sc(N2C(=O)c3oc4ccccc4c(=O)c3C2c2cccc(O)c2)nc1C (stereo not given)	-5.9%	-8.8%
Cc1cc2nc(-c3cccc(NC(=O)c4ccc(Br)o4)c3)oc2cc1C	x	-6.4%
COc1cc(OC)cc(C(=O)Nc2cccc3cccnc23)c1	-2.6%	1.0%
COCCNC(=S)N1CCC(C(=O)c2ccc(Cl)cc2)CC1	-19.7%	-26.6%
CN(C(=O)COC(=O)c1ccc([N+](=O)[O-])cc1N)c1ccccc1	i	-7.2%
CC(C)CC(=O)c1c[nH]c(C(=O)NCc2ccccc2)c1	-12.5%	-8.0%
COc1ccc(CC(=O)N/N=C(/C)CC(=O)N(C)c2ccccc2)cc1	-4.7%	-8.2%
C=CCN1C(=O)/C(=C/c2ccc(O)c(OC)c2)S/C1=N/c1nccs1	330.9%[activator]	x
CCC(C)c1ccc(O)c(NC(=O)c2ncn[nH]2)c1 (stereo not given)	-14.7%	-3.1%
O=C(CSc1nnc(-c2cccnc2)n1-c1ccccc1)Nc1ccccn1	-13.5%	-8.7%
O=C(c1cc([N+](=O)[O-])ccc1N1CCCC1)N1CCCCC1	-19.8%	-5.5%
O=C(NCc1ccco1)C1CC(=O)N(c2ccc(O)cc2)C1 (stereo not given)	-3.9%	10.1%
O=C(O)CCNc1nc(C(F)(F)F)nc2ccccc12	-1.4%	2.1%
Cc1cc([N+](=O)[O-])nn1Cc1ccc(C(=O)N/N=C/c2ccc(O)cc2O)cc1	u	u

Additional compounds:
SMILES	VACV mCherry inh	VACV Venus inh
COc1cccc(CNc2ccc3[nH]c(=O)[nH]c3c2)c1OCc1ccccc1	-17.3%	-15.8%
O=C(NCc1ccccc1)N1CCN(c2ccccc2)CC1	-22.7%	-18.1%
Cc1cccc(C)c1OCC(O)Cn1nnc2ccccc21 (stereo not given)	x	-9.5%
O=C(OCc1ccccc1)N1CCC2CC1c1cc(-c3ccccc3)ccc12 (stereo not given)	-26.8%	3.3%
CCCN1CCN(S(=O)(=O)c2ccc3c(c2)CC(C)N3C(=O)C2CC2)CC1 (stereo not given)	-14.8%	-7.4%
O=C1OCCN1/N=C/c1ccc([N+](=O)[O-])o1	-2.4%&-20.5%	-14.7%&-16.9%
COC(=O)[C@H](C)NC(=O)/C=C/c1ccc(OC)cc1	i	-7.2%
Cc1ccccc1CSc1cn(CCNC(=O)c2cccs2)c2ccccc12	-24.3%	-22.8%
Nc1cc2cccnc2cc1Cl	u	4.8%
COc1ccc(/C=C/C(=O)OCC(=O)c2ccccc2F)cc1	-22.1%	-16.1%
CCCOCCc1nnc(N)s1	i	-7.4%
COc1ccc(C(=O)N2CCN(C(=O)c3ccco3)CC2)cc1OC	-18.0%	-4.6%
Cc1onc(-c2c(F)cccc2Cl)c1C(=O)NCCN1CCNC1=O	i	-4.7%
CCCn1c(SCC(=O)c2cc(C)n(-c3cc(C)on3)c2C)n[nH]c1=O	-26.0%	-23.4%
COc1ccc(C(=O)NCc2ccccn2)cc1[N+](=O)[O-]	i	-9.5%
Cc1ccc(S(=O)(=O)N2CCCc3cc(NC(=O)c4ccc(C(F)(F)F)cc4)ccc32)cc1	-9.4%	-15.7%
O=c1c2ccccc2nnn1CSc1nnc(-c2ccc3c(c2)OCO3)o1	x	-12.9%
O=c1[nH]c(=S)c2c(n1-c1ccccc1)CCC2	-6.3%	-9.7%
Nc1c(C(=O)N/N=C/c2ccc(F)cc2)oc2nc(-c3ccccc3)cc(-c3ccco3)c12	-5.5%	48.6%[activator]
O=C1CC(N(CCc2ccccc2)C(=S)Nc2cc(Cl)ccc2Cl)C(=O)N1c1c(Cl)cccc1Cl (stereo not given)	u	u
O=C(Nc1ccc(CN2CCCCC2)cc1)c1sc2ccccc2c1Cl	i	-9.8%
O=C(O[C@H]1[C@H](Cc2ccccc2)NS(=O)(=O)[C@H]2C[C@@H]3C=C[C@]12O3)c1ccc([N+](=O)[O-])cc1	u	-15.8%&-7.9%
Cc1cc(=O)[nH]c2ccc(Cc3ccccc3)cc12	-4.6%	-10.8%
O=C(NCCCn1ccnc1)c1ccc(NS(=O)(=O)c2ccc(Cl)c(Cl)c2)cc1	-17.9%	4.7%
Cc1cc(C)n2nc(-c3ccccc3)cc2n1	6.6%	-5.9%

Four structures from above, arranged by length of the SMILES, highest first.
SMILES	VACV mCherry inh	VACV Venus inh
Cc1ccc(N2C(=O)CCSC23C(=O)N(Cc2ccccc2)c2ccccc23)cc1F (stereo not given)	-15.8%	u
C=CCN1C(=O)/C(=C/c2ccc(O)c(OC)c2)S/C1=N/c1nccs1	330.9%[activator]	x
CCC(C(=O)NCc1cccnc1)n1nc(C)n2c(cc3occc32)c1=O (stereo not given)	i	-5.5%
COc1ccc(C(=O)N2CCN(C(=O)c3ccco3)CC2)cc1OC	-18.0%	-4.6%

A stretch from the list above, as a working copy:
SMILES	VACV mCherry inh	VACV Venus inh
CC(=O)Nc1cccc(NS(=O)(=O)c2ccc3c(c2)CCC(=O)N3)c1	i	-15.3%
O=C(Cn1c(=O)oc2ccccc21)Nc1ccc(F)cc1	-25.4%	-0.9%

Next records follow.
SMILES	VACV mCherry inh	VACV Venus inh
O=C(CSc1ncc(S(=O)(=O)c2ccc(Br)cc2)c(=O)[nH]1)NCc1ccc(Cl)cc1	2.6%	4.9%
O=C(CSC(=S)N1CCCCC1)c1ccccc1	i	-16.3%
O=C(COC(=O)c1ccncc1)Nc1ccccc1	-17.1%	-3.9%
CC(C)NCC(O)COc1ccc(Br)cc1 (stereo not given)	-14.0%	-13.4%
CCNC(=O)C(=O)Nc1ccc([N+](=O)[O-])cc1	-6.9%	-15.6%
COc1ccccc1N1C(=O)c2ccc(C(=O)Nc3nccs3)cc2C1=O	0.2%	-0.4%
CCN(CC)CCCNC(=O)/C(=C\c1cccn1C)NC(=O)c1cccs1	-12.0%	-0.4%
CCC(C)Oc1ccc(/C=C/c2[nH]c(=O)[nH]c(=O)c2[N+](=O)[O-])cc1OC (stereo not given)	i	-4.5%
CC(Oc1ccc(F)cc1)C(=O)Nc1cc(S(=O)(=O)N2CCOCC2)ccc1N1CCN(C)CC1 (stereo not given)	-12.7%	-6.0%
Cn1cc(C(=O)NC2C3CC4CC(C3)CC2C4)cn1 (stereo not given)	-5.0%	-10.3%
COc1cccc(S(=O)(=O)N(C)C[C@@H]2OCc3cn(nn3)CCCC(=O)N([C@H](C)CO)C[C@H]2C)c1	-16.4%	-13.0%
Cc1cc(C)n(CCNC(=O)c2cc(COc3ccc(F)cc3Cl)on2)n1	i	1.3%
CCN(CC(=O)Nc1cc(Cl)ccc1C)C(=O)CN1C(=O)NC(CC)(c2ccccc2)C1=O (stereo not given)	-13.4%	-1.9%
CC(C)(C)c1ccc(Cn2c(Cc3ccccc3)nc3ccccc32)cc1	-22.5%	-2.3%
COc1ccc(NS(=O)(=O)c2cccc(C(=O)NNC(=O)CN3C(=O)NC(C)(C)C3=O)c2)cc1	-1.5%	-10.0%
O=C(OCC(=O)c1ccc([N+](=O)[O-])cc1)/C(=C\c1ccc(Cl)cc1)NC(=O)c1ccccc1	-22.7%	-16.1%
COc1ccc(NC(=O)COC(=O)c2ccc3ccccc3n2)cc1OC	-9.7%	-12.7%
O=C(CSCC(=O)Nc1cccc([N+](=O)[O-])c1)Nc1ccccc1	-23.2%	-4.3%
COCCN(C(=O)c1cc(Cl)ccn1)c1c(N)n(Cc2ccccc2)c(=O)[nH]c1=O	-10.9%	-19.9%
CC12CCC(=O)N1C(C(=O)OCC(=O)Nc1cccc(Br)c1)CS2 (stereo not given)	i	-2.2%
O=C1NCCNC1c1ccccc1 (stereo not given)	-13.3%	-4.9%
COc1ccc(-c2cc(C(=O)N/N=C/c3cccnc3)c3cc(C)cc(C)c3n2)cc1	-23.2%	-25.5%
CCOc1cc(S(=O)(=O)N2CCOCC2)ccc1F	x	-4.2%
Cc1ccc(C)c(OCC(=O)Nc2ccc(N3CCOCC3)cc2N2CCOCC2)c1	-2.6%	-24.7%
CC(=O)N1c2ccccc2C(C)CC12CCCCC2 (stereo not given)	-11.4%	-3.6%

In the list so far, 6 have bromine:
SMILES	VACV mCherry inh	VACV Venus inh
CCOc1ccc(NC(=S)NNC(=O)c2ccc(Br)cc2)cc1	-17.2%	-11.0%
Cc1cc(NC(=O)CCS(=O)(=O)c2cc(Br)cc3c2N(C(=O)C2CC2)CC3)ccc1Br	-9.8%	3.0%
Cc1cc2nc(-c3cccc(NC(=O)c4ccc(Br)o4)c3)oc2cc1C	x	-6.4%
O=C(CSc1ncc(S(=O)(=O)c2ccc(Br)cc2)c(=O)[nH]1)NCc1ccc(Cl)cc1	2.6%	4.9%
CC(C)NCC(O)COc1ccc(Br)cc1 (stereo not given)	-14.0%	-13.4%
CC12CCC(=O)N1C(C(=O)OCC(=O)Nc1cccc(Br)c1)CS2 (stereo not given)	i	-2.2%

Further compounds:
SMILES	VACV mCherry inh	VACV Venus inh
COc1ccc(C(=O)NC(=S)Nc2cc(C)ccn2)cc1[N+](=O)[O-]	i	-13.4%
CN(CC(=O)Nc1ccccc1Cl)C(=O)COC(=O)c1cc(S(=O)(=O)N(C)C)ccc1N1CCCC1	-18.6%	-15.1%
Cc1ccc2c(c1)cc(CN(C(=O)N1CCOCC1)C1CCCC1)c1nnnn12	-10.6%	-9.3%
COc1ccc(S(=O)(=O)NCc2cccnc2)cc1C(=O)N1CCCCC1	-1.9%	5.7%
Cc1ccc(CN(CC(=O)NCC2CCCO2)S(=O)(=O)c2ccc(C)cc2)cc1 (stereo not given)	-25.0%	-2.6%
Fc1ccc(Nc2nc(N3CCOCC3)nc(N3CCOCC3)n2)cc1	-15.9%	-20.4%
CC(=O)/C(=N\Nc1ccc(C)cc1)Sc1nncn1C	i	5.3%

High-throughput results (PubChem BioAssay)
